Menin-MLL FL inh = inhibitors of human menin-MLL interaction, wild-type MLL peptide | FP activity change, % at 61.4 µM | Fluorescence polarization, fluorescein-MLL peptide displacement from menin | 290,000 tested, under 10 active; inconclusive = falling polarisation curve, or a change in total fluorescence; inactive = total fluorescence flat and polarisation flat or rising; no compound was filed as active; the % refers to the polarisation; negative = inhibition;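 further: % of control where 0% means no effect; inhibitors lower the polarisation; unlabelled MLL peptide was the positive control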
Sfp PPTase inh = Sfp phosphopantetheinyl transferase inhibition. Q9F4F7. Biochemical Sfp PPTase activity, qHTS. Potency, µM, inactives show max response, negative = inhibition, usual class: inhibitors. 310,000 tested, 3.5% active. AID 1490; active means well fitted inhibition curve with a large enough effect; inconclusive means small, poorly fitted or top-dose-only effect, or another doubt; inactive means no such curve, though single readings can be large or run the other way;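 further: the enzyme is Sfp with the accession as filed and its product quenches rhodamine fluorescence; potency means the concentration at half of the fitted maximal effect; 0% = enzyme reaction without inhibitor and -100% = no enzyme wells; top concentration of the series not given in the record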
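Buffer: 50 mM Hepes-Na pH 7.6, 10 mM MgCl2, 0.01% Nonidet P-40, 0.01% BSA. Enzyme 15 nM, pre-exposed to compound 15 min; substrates then added and fluorescence change tracked over 30 min.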
PINK1 modulator = changes PINK1 expression | PINK1 immunofluorescence, high-content cytometry, 24 h | Potency, µM (titrated, usually from 76.6 µM), without a hit: top-dose activation (PINK1 increase), hits mostly activators | 410,000 tested, 0.2% active | AID 624263; active = well fitted activation curve with a large enough effect; inconclusive = small, poorly fitted or top-dose-only effect; inactive = flat fitted curve, though single readings scatter; cell line not stated here;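 further: potency means the concentration at half of the fitted maximal effect; % of control where 0% means no effect; nearly all actives have a fitted effect of over 65% in size; a mitochondrial uncoupler was the plate control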
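Readout is PINK1 immunofluorescence, quantified alongside mitochondrial, cell and nuclear markers by laser-scanning microplate cytometry. Cells from a stable line were exposed to compound titrations (5 concentrations) for 24 hours, with CCCP controls.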
D2 ag = activates the human D2 dopamine receptor. AID 624465. activation, % (concentration not given with the values). DiscoveRx PathHunter D2 beta-arrestin, luminescence, 90 min; 100% = 57 uM dopamine signal. 360,000 tested, 0.084% active. P14416; in the data active = activation above about 40%; inconclusive = about 15% to 40%; inactive = below about 15%; further: compound concentration not given in the record; the text of the record calls up to 30% inactive
Target sequence (P14416 whole entry, looked up): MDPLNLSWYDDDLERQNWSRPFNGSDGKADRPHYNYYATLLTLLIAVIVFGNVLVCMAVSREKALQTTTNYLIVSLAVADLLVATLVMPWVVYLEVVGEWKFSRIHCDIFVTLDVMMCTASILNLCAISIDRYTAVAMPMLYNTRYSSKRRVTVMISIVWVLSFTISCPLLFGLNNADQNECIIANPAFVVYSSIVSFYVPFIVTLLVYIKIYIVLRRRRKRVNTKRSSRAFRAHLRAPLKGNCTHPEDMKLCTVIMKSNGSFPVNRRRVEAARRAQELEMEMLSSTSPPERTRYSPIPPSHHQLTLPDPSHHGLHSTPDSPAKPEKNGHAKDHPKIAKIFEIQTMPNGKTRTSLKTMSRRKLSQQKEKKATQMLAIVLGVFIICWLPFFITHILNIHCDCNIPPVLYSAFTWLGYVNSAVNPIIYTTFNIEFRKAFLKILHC
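Agonist mode: compounds alone added to overnight-plated D2 PathHunter cells for 90 min at 37 C, with 57 uM final dopamine (EC100) defining full response. Beta-arrestin recruitment detected by chemiluminescent reagent, read after 1 h at ambient temperature.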
gsp antagonist = gsp mutant antagonism | gsp-mutant cells, cAMP HTRF, 30 min; control for the full effect not named in the record | Potency, µM (doses to about 76.9 µM), for inactives: at the highest dose activity change, negative = inhibition, most hits filed as inhibitors | 340,000 tested, 0.4% active; active = falling curve of any shape with a large fitted effect; inconclusive = falling curve, mostly with a smaller effect; inactive = flat or rising curve; cell line not stated here;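 further: intracellular cAMP measured with PDE inhibitor Ro 20-1724 present during compound exposure; potency means the concentration at half of the fitted maximal effect; on the % scale 0 is the no-effect control and ±100 the full control effect; nearly all actives have a fitted effect of over 65% in size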
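Cells in G418 medium, seeded 16-24 h, 37C; buffer exchange to DPBS + 1 mM CaCl2, 0.5 mM MgCl2, 0.05% BSA; cpds in DMSO + […] (300 uM stock), 30 min 37C; HTRF cAMP detection.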
gsp ag = agonists of gsp mutant (McCune-Albright syndrome); gsp mutant cells, cAMP HTRF, 30 min; control for the full effect not named in the record; AID 624287; Potency, µM (series often up to 76.9 µM), inactives show top-dose activation (cAMP increase), usual class: activators; 340,000 tested, 0.13% active; active = well fitted activation curve with a large enough effect; inconclusive = small, poorly fitted or top-dose-only effect, or another doubt; inactive = no such curve, though single readings can be large or run the other way; cell line not stated here;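 further: phosphodiesterase inhibitor Ro 20-1724 added with compounds to block cAMP breakdown; potency means the concentration at half of the fitted maximal effect; nearly all actives have a fitted effect of over 60% in size; about a fifth of the inactives were tested at one dose only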
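Cells in DMEM/10% FBS with G418 were pretreated with compounds in DMSO plus […] (300 uM stock) for 30 min at 37C. cAMP was measured by HTRF (cAMP-d2 plus anti-cAMP antibody-K) after 30 min at room temperature.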
ClpP mod = qHTS Assay for Activators of ClpP; ATP-dependent Clp protease proteolytic subunit (Bacillus subtilis (strain 168)), P80244; purified B. subtilis ClpP, FRET peptide cleavage, 20 min; Potency, µM (doses to about 57.5 µM), inactives show top-dose activity change, negative = active; 340,000 tested, 1.9% active; AID 651965, 2013; active = well fitted falling curve with a large enough effect; inconclusive = small, poorly fitted or top-dose-only effect; inactive = no such curve, though single readings can be large or run the other way; further: potency means the concentration at half of the fitted maximal effect; the source files actives as falling curves though it sought activators and does not explain the sign; nearly all actives have a fitted effect of over 65% in size; many hits overshoot -100%
Target sequence (P80244 whole entry, looked up): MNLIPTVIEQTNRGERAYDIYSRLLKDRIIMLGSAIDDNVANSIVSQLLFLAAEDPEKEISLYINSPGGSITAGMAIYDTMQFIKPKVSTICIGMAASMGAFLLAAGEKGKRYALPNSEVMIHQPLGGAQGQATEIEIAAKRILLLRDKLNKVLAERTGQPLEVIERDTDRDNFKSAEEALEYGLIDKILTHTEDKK
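ClpP 10 microg/mL final, pH 8 Tris/KCl buffer with BSA, glycerol, Tween-20; compound pinned in; FRET-FV substrate; RT 20 min; Ex320/Em430; ΔFRET vs ADEP 5.8 microM, DMSO, no enzyme.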
An asterisk follows results filed as active; ? = inconclusive; / = no result given; [ ] = dose if it differs, or a comment.

SMILES	Menin-MLL FL inh	Sfp PPTase inh	PINK1 modulator	D2 ag	gsp antagonist	gsp ag	ClpP mod
COc1cccc(C2CNC3(CCCC(C)C3)c3[nH]c4ccccc4c32)c1OC (stereo unspecified)	-4.6	-23%	5.1%	-6.0	2%	-55%[inhibitor]	-1.2%
Cc1ccc(C(=O)N2CCC(n3nccc3NC(=O)c3ccccc3C)CC2)cn1	/	16%	0.4%	-5.7	16%	-9%[15.4 µM]	0.9%
CCn1c(N2CCC(C)CC2)nc2c1c(=O)n(C)c(=O)n2C	0.4	12%	0.2%	6.7	-6%	?	2.2%
C=CCN(c1ccccc1C(=O)NCC(=O)OCC)S(=O)(=O)c1ccc(C)cc1	0.4	12%	-1.1%	-1.6	8%	7%[15.4 µM]	-2.3%
COC(=O)c1ccc(COc2ccc(CNCc3ccc(Cl)cc3)cc2)cc1	-2.2	7%	-0.8%	5.3	8%	-26%	/
CCOC(=O)c1c(C)[nH]c(C(=O)CSc2nnnn2-c2ccc(C)cc2)c1C	-0.7	13%	18%[38.3 µM]	-2.6	11%	?	-3.5%
Cc1ccc(NC(=O)N2CCCC2C(=O)NCc2ccccc2Cl)cc1 (stereo unspecified)	0.3	0%	0.8%	-2.9	5%	-51%[inhibitor]	0.7%
CCCC(C)C(=O)Nc1cccc(NC(C)=O)c1 (stereo unspecified)	6.5	-3%	4.9%[38.3 µM]	-2.7	11%	-1%	1.4%
CN(CC(=O)NC1CCCCCC1)S(=O)(=O)c1ccc(Br)cc1	-4.4	16%	-0.9%	-3.5	10%	-19%	-15%
C[C@H](CO)N1C[C@H](C)[C@@H](CN(C)Cc2ccccc2F)Oc2ncc(Br)cc2C1=O	/	/	1.1%	2.0	/	10%	2.5%
COc1ccc(C(=O)Nc2nc(-c3cccs3)c(NC(C)=O)s2)cc1	1.3	7%	16%	3.0	1%	12%	?
CCOC(=O)c1cccc(N2C(=O)C3C(C(=O)NC4CC4)C4(C)C=CC3(O4)C2C(=O)NC(C)(C)C)c1 (stereo unspecified)	2.1	16%	-0.5%	-2.6	13%	-11%	2.5%
Cc1c(Cc2ccccc2)c(=O)oc2cc(OCC(=O)NC(Cc3ccc(Cl)cc3)C(=O)O)ccc12 (stereo unspecified)	0.0	4%	1.0%	-5.5	6%	/	4.7%
Brc1ccc2c(c1)C(C1=NCCN1)c1ccccc1CS2 (stereo unspecified)	-1.4	8%	-1.7%	-0.3	11%	-5%	-1.0%
COc1ccc(OC)c2sc(NC(=O)c3cccc(N4C(=O)CCC4=O)c3)nc12	/	-10%	7.6%	-1.1	8%	10%	-4.0%
COc1cc(N2CCC(O)CC2)ccc1Nc1nnc(Cl)c(Nc2ccccc2S(C)(=O)=O)n1	/	/	0.3%	4.2	-16%	/	1.2%
Cc1cc(=O)n2c(nc3ccccc32)[nH]1	2.9	15%	-5.1%[38.3 µM]	-1.2	13%	14%	14µM*
COc1ccccc1NC(=O)c1cc(-c2cc(OC)c(OC)c(OC)c2)nc2ccccc12	-9.8	2%	1.4%	8.5	-28%	?	/
CC(=O)N1CCN(c2ccc(NCc3cccc4ccccc34)cc2)CC1	-2.2	-22%	1.5%	12	-23%	21%	/
CCN1CCN(C(c2ccccc2)c2nnnn2Cc2ccccc2)CC1 (stereo unspecified)	-0.7	11%	-0.6%	-2.7	-5%	-29%	-0.2%
O=c1nc(NCc2ccccc2Cl)cn[nH]1	-2.2	13%	6.4%[38.3 µM]	-0.7	8%	13%	-2.5%
C/C=C/c1ccc(OCCCCOc2c(OC)cccc2OC)c(OC)c1	5.4	?	1.5%	-3.8	-12%	-12%	-20%
O=C(Nc1ccccc1OC(F)F)c1ccc(S(=O)(=O)N2CCOCC2)cc1	-5.1	12%	-2.0%	-0.4	5%	36%	-0.7%
CN1C(=O)[C@H]2[C@@H](c3ccc(C(F)(F)F)cc3)N[C@]3(CCCN(Cc4ccc(Cl)cc4)C3=O)[C@H]2C1=O	/	/	2.1%	1.6	/	-5%	2.3%
Cc1cc(C)c(C)c(S(=O)(=O)NCC(=O)Nc2sc3c(c2C(N)=O)CCCC3)c1C	4.0	-6%	5.1%	2.4	0%	-35%[inhibitor]	-7.9%

Later entries
SMILES	Menin-MLL FL inh	Sfp PPTase inh	PINK1 modulator	D2 ag	gsp antagonist	gsp ag	ClpP mod
CCc1ccc(Nc2cc(=O)n(C3CCCCC3)c(=O)[nH]2)cc1	4.5	-6%	28µM*	1.4	-22%	7%	1.9%
CCC1(c2ccccc2)NC(=O)N(CC#N)C1=O (stereo unspecified)	1.1	2%	1.2%	-5.2	11%	12%[15.4 µM]	/
COc1ccc(C(=O)NCc2nnc(SCC(=O)NC3=NCCS3)n2C)cc1	6.8	-3%	-0.6%	-1.6	24%	-9%[15.4 µM]	/
Cc1cccc(C2N(c3ccc(F)cc3)C(=O)C3CCCN32)c1 (stereo unspecified)	/	/	0.2%	-0.9	5%	-1%	0.8%
CCCNC(=S)N1CCC(NC(=O)c2ccc(C)cc2)CC1	-1.0	3%	-0.2%	-2.3	-1%	-12%[15.4 µM]	-13%
O=c1[nH]c2ccccc2n2c(=S)[nH]nc12	3.8	-29%	1.0%	-4.7	?	?	/
O=C(COC(=O)C1CCN(S(=O)(=O)c2cccc3cccnc23)CC1)c1ccccc1	1.1	24%	4.9%	-4.1	-13%	11%	-6.6%
CCOc1ccc(N2CC(C(=O)Nc3ccc(S(=O)(=O)N4CCOCC4)cc3)CC2=O)cc1 (stereo unspecified)	2.1	6%	-3.0%[38.3 µM]	0.5	9%	1%	-0.6%
CC(C)OC(=O)CCCNc1ccc([N+](=O)[O-])cc1[N+](=O)[O-]	-0.6	15%	-2.4%	1.0	-20%	0%	1.2%
Cc1cc(C)c2nc(-c3ccccn3)cc(C(=O)NCc3ccc(S(N)(=O)=O)cc3)c2c1	1.8	1%	0.3%	3.9	-11%	9%[15.4 µM]	/
O=C(Nc1cccnc1)c1sc2cccc(F)c2c1Cl	1.0	13%	-1.5%	-1.0	11%	-3%[15.4 µM]	/
CCOC(=O)c1cc(-c2ccco2)nc2c1c(C)nn2CCC#N	1.8	28µM*	0.0%	-1.9	-12%	-3%	?
CN1C(=O)/C(=C/C=C2\SCCN2C)OC1=S	?	0%	24%	-3.3	10%	10%[15.4 µM]	/
CCOC(=O)C1(CCOc2ccccc2)CCN(Cc2nccn2CC)CC1	0.1	16%	1.1%	0.9	8%	24%	/
COCC(=O)Nc1ccc([N+](=O)[O-])cc1C	3.5	14%	0.1%	-3.1	-5%	1%	-1.7%
Cn1c(N)cc(=O)[nH]c1=S	/	/	0.2%	-0.2	-9%	-8%	0.6%
C=C(C)c1cccc(C(C)(C)NC(=O)Nc2ccc(C)cn2)c1	0.2	11%	11%	-2.3	-5%	-25%	1.0%
CC(Cc1cccnc1)NC(=O)CCc1nnc(-c2ccccc2)o1 (stereo unspecified)	-1.4	5%	0.4%	-3.3	-34%	16%[15.4 µM]	/
Cc1ccc(NCN2C(=O)C3CC=CCC3C2=O)cc1 (stereo unspecified)	-2.3	4%	0.7%	-2.0	9%	-9%	-0.1%
CCOC(=O)C1(Cc2ccccc2)C(=O)Nc2ccccc21 (stereo unspecified)	/	/	-1.3%	-2.3	3%	-8%	/
Cc1cc2ncn(/N=C/c3cccnc3)c2cc1C	0.4	-9%	-0.5%	-2.0	-14%	-28%	0.8%
CC(=O)c1ccc(NC(=O)COC(=O)C2CCN(S(=O)(=O)c3cccs3)CC2)cc1	/	/	-0.4%	-4.5	-11%	-3%[15.4 µM]	0.1%
Cc1nc(-c2ccccn2)sc1C(=O)Nc1ccc(F)cc1	3.1	18%	-18%[38.3 µM]	-0.6	-3%	4%	-1.5%
COc1ccccc1NC(=O)CCSc1nc(C)cs1	-1.9	5%	0.1%	-0.5	4%	25%	1.7%
Oc1ccc(/C=N/NC(=S)Nc2cccnc2)c(O)c1O	3.7	3.5µM*	-1.0%	1.1	-17%	17%[15.4 µM]	/

Look-ups from the entries so far:
Cn1c(N)cc(=O)[nH]c1=S – PINK1 modulator: 0.2%
COc1ccccc1NC(=O)CCSc1nc(C)cs1 – PINK1 modulator: 0.1%

Compound profiles, as listed above. Order of screens: Menin-MLL FL inh, Sfp PPTase inh, PINK1 modulator, D2 ag, gsp antagonist, gsp ag, ClpP mod
CN1C(=O)/C(=C/C=C2\SCCN2C)OC1=S is listed with ?, 0%, 24%, -3.3, 10%, 10%[15.4 µM], /
Cc1ccc(NCN2C(=O)C3CC=CCC3C2=O)cc1 (stereo unspecified) is listed with -2.3, 4%, 0.7%, -2.0, 9%, -9%, -0.1%
CC(=O)c1ccc(NC(=O)COC(=O)C2CCN(S(=O)(=O)c3cccs3)CC2)cc1 is listed with /, /, -0.4%, -4.5, -11%, -3%[15.4 µM], 0.1%
Oc1ccc(/C=N/NC(=S)Nc2cccnc2)c(O)c1O is listed with 3.7, 3.5µM*, -1.0%, 1.1, -17%, 17%[15.4 µM], /

Next part
SMILES	Menin-MLL FL inh	Sfp PPTase inh	PINK1 modulator	D2 ag	gsp antagonist	gsp ag	ClpP mod
COc1ccc(CN2CCNC(=O)C2CC(=O)NCCC2=CCCCC2)c(F)c1 (stereo unspecified)	/	15%	-0.1%	-2.3	12%	2%	-2.6%
Nc1cc2c(cc1C(=O)c1cccc(Br)c1)OCCO2	-2.4	-13%	3.3%	-3.3	6%	9%[15.4 µM]	/
CCOC(=O)C1=C(COC(=O)/C=C/c2cccc(Br)c2)NC(=O)NC1C (stereo unspecified)	/	/	0.9%	-0.5	-4%	-20%	-0.2%
CC(NC(=O)COC(=O)c1ccccc1O)C1CC2CCC1C2 (stereo unspecified)	/	/	13%	-3.1	2%	0%	7.7%
NS(=O)(=O)c1ccc(CCNC(=S)Nc2ccc(F)cc2)cc1	2.2	5%	-2.1%	1.2	9%	-17%	/
CC1CC1C(=O)OCC(=O)N(C)CC(=O)Nc1ccc(F)cc1 (stereo unspecified)	/	/	0.3%	-1.3	5%	16%	0.4%
COC(=O)c1cc(C(=O)OC)cc(-n2c(C)cc(C=O)c2C)c1	4.1	23%	0.5%	-5.1	/	14%[15.4 µM]	/

Screening results as filed in PubChem.
